Screening results: PubChem, National Center for Advancing Translational Sciences (NCATS)
Rango-impB inh: qHTS Assay for Inhibitors of Rango (Ran-regulated importin-beta cargo) - Importin beta complex formation | 340,000 tested, 0.031% active | Potency, µM (series often up to 92.2 µM), for inactives: top-dose inhibition of complex formation | AID 540263, 2011 | Importin subunit beta-1 (Homo sapiens), Q14974 | Rango CFP/YFP FRET sensor + importin beta, 45 min; active = rising FRET ratio curve, often small or poorly fitted; inconclusive = mostly compound fluorescence or quenching in the first reads; inactive = flat curves in all reads;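 further: potency means the concentration at half of the fitted maximal effect; 0% = DMSO wells and 100% = buffer wells lacking importin beta; nearly all actives have a fitted effect of over 15% in size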
Target sequence (Q14974 whole entry, looked up): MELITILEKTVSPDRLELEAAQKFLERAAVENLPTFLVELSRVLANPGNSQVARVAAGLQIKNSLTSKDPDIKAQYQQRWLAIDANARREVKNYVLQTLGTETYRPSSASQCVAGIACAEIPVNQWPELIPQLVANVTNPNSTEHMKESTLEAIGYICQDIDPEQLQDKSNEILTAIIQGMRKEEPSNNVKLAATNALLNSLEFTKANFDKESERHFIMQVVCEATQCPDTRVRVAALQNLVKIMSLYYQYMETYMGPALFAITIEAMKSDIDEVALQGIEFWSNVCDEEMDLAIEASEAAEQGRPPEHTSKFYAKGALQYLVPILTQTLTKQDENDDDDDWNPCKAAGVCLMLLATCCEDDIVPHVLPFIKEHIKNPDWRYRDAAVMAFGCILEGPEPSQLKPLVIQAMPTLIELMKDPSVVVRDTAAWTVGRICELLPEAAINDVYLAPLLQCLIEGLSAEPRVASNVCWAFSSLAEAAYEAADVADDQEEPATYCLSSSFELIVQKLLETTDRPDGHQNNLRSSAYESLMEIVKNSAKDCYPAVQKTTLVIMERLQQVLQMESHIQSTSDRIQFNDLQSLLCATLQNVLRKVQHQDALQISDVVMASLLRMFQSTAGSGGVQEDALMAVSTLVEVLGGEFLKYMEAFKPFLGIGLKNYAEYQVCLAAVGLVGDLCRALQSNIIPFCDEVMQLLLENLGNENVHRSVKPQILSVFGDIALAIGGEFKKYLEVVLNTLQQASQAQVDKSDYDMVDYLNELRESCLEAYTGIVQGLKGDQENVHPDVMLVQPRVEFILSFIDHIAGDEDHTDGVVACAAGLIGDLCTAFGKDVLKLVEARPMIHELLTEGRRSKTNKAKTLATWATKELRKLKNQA
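Inhibition scored from the CFP 486 nm/YFP 530 nm FRET ratio 45 min after adding 0.125 microM importin beta to 50 nM Rango biosensor preincubated 5 min with compound (room temperature, PBS with DTT, Tween-20, BSA). No-importin wells as positive control.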
Rango release inh: qHTS Assay for Inhibitors of RanGTP induced Rango (Ran-regulated importin-beta cargo) - Importin beta complex dissociation. Snurportin-1 (Homo sapiens) + GTP-binding nuclear protein Ran (Homo sapiens) + Importin …. Biochemical FRET Rango-importin beta, RanGTP-induced dissociation. Potency, µM (titrated, usually from 46.1 µM), inactives show at the highest dose activity change, negative = inhibition. 340,000 tested, 0.071% active; active means falling FRET ratio curve, often poorly fitted, with flat reads before Ran was added; inconclusive means other falling curves, or compound fluorescence or quenching; inactive means flat or rising ratio curve;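 further: potency means the concentration at half of the fitted maximal effect; % of control where 0% means no effect; nearly all actives have a fitted effect of over 45% in size; -100% = wells without RanGTP and RCC1; the record marks most hits as doubtful in a second field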
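Compounds preincubate 5 min with complex of recombinant Rango and importin beta in PBS with 1 mM DTT. Ran (0.6 uM) loaded with 2 mM GTP plus 0.2 uM RCC1 starts dissociation; FRET is recorded 45 min later.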
miR-21 FLuc: qHTS Assay for Modulators of miRNAs and/orActivators of miR-21 | AID 2288, 2010 | 340,000 tested, under 10 active | HeLa miR-21 FLuc reporter, luciferase, 48 h | Potency, µM (highest dose often 38.3 µM), for the others: at the highest dose reporter change, positive = more light; active = well fitted rising curve with a large enough effect; inconclusive = small, poorly fitted or top-dose-only effect; inactive = no such curve, though single readings can be large or run the other way;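 further: % of control where 0% means no effect; miR-21 action dims this reporter so a rising signal means less miR-21 action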
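Luminescence from a firefly luciferase reporter carrying a miR-21 binding site downstream, stably expressed under a CMV promoter in HeLa cells that make miR-21 endogenously, reports miRNA modulation after 48 h compound exposure up to approximately 40uM final.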
GLA inh pH 4.5: qHTS Assay for Inhibitors of Human alpha-Galactosidase at pH 4.5; purified enzyme, 4-MU-alpha-Gal fluorescence, pH 4.5; activity change, negative = inhibition, % at 105 µM; 230,000 tested, under 10 active; Alpha-galactosidase A (Homo sapiens), P06280; AID 1467, 2008; inconclusive = small, poorly fitted or top-dose-only inhibition, or a rising curve; inactive = flat fitted curve, though single readings scatter; no compound was filed as active;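 further: 0% = full activity with enzyme and -100% = basal without enzyme; dose as in the result columns while the protocol names 77 µM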
Active calls of the source: *; ? = inconclusive; · = not tested or not shown; & = joins results of further samples; [ ] = another dose, or the depositor's remark. These rows are one share of the data; count on the stated rates, not on these rows.

SMILES	Rango-impB inh	Rango release inh	miR-21 FLuc	GLA inh pH 4.5
Cc1ccc(C(=O)Nc2ccncc2)o1	-0.9%	34%	-2%	-3
COc1ccccc1CNC(=O)CN1C(=O)CSc2ccc(S(=O)(=O)N3CCCC3)cc21	-1.9%	21%	-2%&-1%	-1[21.1 µM]
COc1cccc(NC(=O)COC(=O)Cn2c(C)csc2=O)c1	-3.4%	6%	·	·
CC(C)(C)C(=O)c1no[n+]([O-])c1/C(=N/O)C(C)(C)C	0.5%	0%	4%	-1
CCCC(=O)Nc1ccc(NC(=O)c2ccccc2F)cn1	1.4%	0%	-40%	·
CC(C)(C)NC(=O)CN(C(=O)CS(=O)CC(=O)Nc1ccc(F)cc1)c1ccc(F)c(Cl)c1 (centres undefined)	8.7%	10%	-8%	-3
Cc1ccc(C)c(NC(=O)c2nnn(Cc3ccccc3C)c2N)c1	0.4%	-18%	1%	-1
COc1ccc(CCNC(=S)N2CCN(S(=O)(=O)c3cccc(F)c3)CC2)cc1	-1.9%	0%	·	·
Cc1ccc(C(=O)c2cn[nH]c2-c2cc(Cl)ccc2O)cc1	-4.1%	3%	-5%	-18
Cc1nnc(C)c2c(C)n(-c3ccc4ncccc4c3)c(C)c12	-3.1%	-4%	1%	4
O=C(Nc1ccnc(-c2cccnc2)n1)c1ccc(Cl)c(Cl)c1	-0.3%	16%	-6%	-7
COc1ccc(OC)c(NC(=O)c2csc(Cl)c2OC)c1	2.5%	17%	-21%	·
CCN(C(=O)COc1ccc(C(=O)c2ccccc2)cc1)c1ccccc1	-0.4%	0%	10%	·
C=CCN(CC=C)C(=O)CN1C(=O)NC(c2ccccc2)(c2ccccc2)C1=O	-5.9%	30%	3%	·
CCOC(=O)C1(CCOc2ccccc2)CCN(Cc2cccc(-n3cccn3)c2)CC1	-0.8%	-3%	27%	-8

Next compounds follow:
SMILES	Rango-impB inh	Rango release inh	miR-21 FLuc	GLA inh pH 4.5
Cc1cc(C)n(C(=O)c2cc3c(s2)CCCC3)n1	0.4%	-7%	-9%	-1
COC(=O)Cc1cc(=O)[nH]c(/N=C(\N)Nc2ccccc2C)n1	0.5%	1%	-21%	-4
COC(=O)c1sccc1NC(=O)Cc1ccc(OC)c(OC)c1	0.3%	10%	-6%	11
COc1ccc(-c2c(-c3cc(OC)cc(OC)c3)n(C)c3ccc(-c4ccc(SC)cc4)cc23)cc1	-1.9%	13%	·	·
Nc1cc(=O)[nH]c(SCC(=O)Nc2cccc(S(=O)(=O)N3CCCCC3)c2)n1	0.3%	0%	·	·
CC(C)Cn1c(N)c(C(=O)CSc2nnnn2C)c(=O)n(C)c1=O	-0.2%	1%	2%	-3
O=C(CCNS(=O)(=O)c1ccccc1)Nc1ccccc1	-0.1%	?	-3%	·
CCOc1ccc(/C(O)=C2/C(=O)C(=O)N(CCOCCO)C2c2cccnc2)cc1 (centres undefined)	5.1%	2%	-3%	8
COc1cccc(NC(=O)CNS(=O)(=O)c2ccc(Cl)cc2)c1	2.1%	10%	14%	-4
Nc1c(-c2ccccc2)cnn1-c1cccc(Cl)c1	-1.0%	-4%	-48%	·
O=C(NCCCN1CCOCC1)c1c(O)c2cc(Br)cc(Br)c2[nH]c1=O	-3.4%	0%	1%	6
CCOC(=O)C1CCN(C(=O)Nc2ccc3nc(C)c(C)nc3c2)CC1	2.7%	7%	-4%	-4
COc1cccc(CNC(=O)Cn2ncc3c(=O)oc4ccccc4c32)c1	-2.2%	0%	0%&0%	3
CCNc1nc(Oc2ccc(OC)cc2)cc(C(F)(F)F)n1	0.5%	-1%	13%	3
CCn1cc(S(=O)(=O)NCCc2ccc(OC)c(OC)c2)cn1	-1.6%	2%	-1%	·

(next part)
SMILES	Rango-impB inh	Rango release inh	miR-21 FLuc	GLA inh pH 4.5
Cc1ccc(S(=O)(=O)N2CCOCC2)cc1C(=O)Nc1ccccc1N1CCOCC1	-3.3%	-4%	·	·
COc1cccc(CNS(=O)(=O)c2ccc3c(c2)N(C(C)=O)CCS3)c1	-1.9%	43%	13%	·
Cc1nn2cc(-c3ccc(Cl)cc3)nc2s1	3.0%	5%	-55%	5
C=CCn1c(-c2cccs2)nc2nc3ccccc3nc21	?	?	-23%	?
O=C(Cc1c[nH]c2ccccc12)Nc1ccccc1N1CCOCC1	1.6%	8%	-10%	1
Cc1ccc(CS(=O)(=O)CCC(=O)NCCN2CCCCC2C)cc1 (centres undefined)	0.0%	0%	-6%	3
CN(CCC#N)C(=O)COC(=O)c1nn(-c2ccccc2)c(=O)c2ccccc12	2.3%	1%	0%	-1
CC(=O)N(c1ccc(C(C)C)cc1)C1C=CS(=O)(=O)C1 (centres undefined)	0.1%	1%	-4%	-3
O=C(N[C@@H]1C/C=C\C[C@@H](CC(=O)N(CCO)Cc2ccccc2)C(=O)NC[C@H](c2ccccc2)OC1=O)OCC1c2ccccc2-c2ccccc21	6.5%	6%	·	·
O=C(Cc1ccccc1)NNC(=O)Nc1ccccc1	-0.2%	-5%	-14%	1
CCOC(=O)c1sc(-c2ccccc2)cc1N	-2.6%	-7%	-74%	-10
COc1cccc(NC(=O)Nc2nnc(CC(=O)Nc3ccccc3)s2)c1	-4.9%	-8%	-5%	2
CC(C)=CCc1cc([C@@H]2CC(=O)c3ccc(O)c(CC=C(C)C)c3O2)ccc1O	0.5%	-12%	·	·
COCCN(CCOC)S(=O)(=O)c1ccc(OC)cc1	0.0%	-5%	3%	-4
O=C1OC(c2ccccc2)(c2cc(Br)c(O)c(Br)c2)c2ccccc21 (centres undefined)	-3.2%	1%	·	·

Remaining list, next part.
SMILES	Rango-impB inh	Rango release inh	miR-21 FLuc	GLA inh pH 4.5
O=C(CS(=O)(=O)c1ccc2ccccc2c1)N1CCCCCC1	-5.1%	21%	-13%	12
COc1cc(C)c(Cl)c(C)c1S(=O)(=O)NCc1cccnc1	-3.4%	4%	-2%	-7
COc1ccc(CN(CCNC(=O)CCCCC(=O)NCCN(Cc2ccc(OC)cc2)C(C)C)C(C)C)cc1	-0.4%	-17%	·	·
N/C(=N\OC(=O)COc1ccc(Br)cc1Cl)c1ccncc1	-0.8%	29%	-72%	-7
N#Cc1ccccc1/C=C/C(=O)N1CCOCC1	-0.7%	-3%	-7%	-1
COc1ccc(-n2c(Cc3cccn3C)nnc2SCC(=O)Nc2ccc3c(c2)OCO3)cc1	2.1%	-5%	-9%	6
Cc1ccc(-c2c(C(=O)N/N=C/c3ccc(C)o3)nnn2-c2nonc2N)cc1	0.2%	-7%	0%	·
NS(=O)(=O)c1ccc(NC(=O)COC(=O)C23CC4CC(CC(C4)C2)C3)cc1	-1.0%	?	-4%	-1
CN(c1ccccc1)S(=O)(=O)c1cccc(NS(=O)(=O)c2cccc(C(=O)O)c2)c1	2.2%	31%	·	·
CC(OC(=O)c1ccco1)C(=O)NCc1cccs1 (centres undefined)	4.1%	10%	-5%	-3
COc1ccc(NC(=O)CC(C)=O)c(OC)c1	3.1%	0%	-5%	3
O=C(CCn1c(=S)oc2ccccc21)NC1CCCCCC1	5.8%	-23%	-5%	-6
CC(C)CC(=O)Nc1c(C(=O)N2CCN(Cc3ccccc3)CC2)oc2ccccc12	-3.4%	-6%	11%	·
N#Cc1c(N)c(C#N)c(-c2ccc(O)cc2)c2c1CCCC2	3.4%	-11%	2%	3
Cc1ccc(NC(=S)NNC(=O)c2cn(C)nc2C)cc1	0.7%	4%	-16%	-1

Additional results:
SMILES	Rango-impB inh	Rango release inh	miR-21 FLuc	GLA inh pH 4.5
O=C(CN1CCN(c2ccccc2O)CC1)Nc1ccc(S(=O)(=O)N2CCCCCC2)cc1	-0.5%	22%	·	·
O=C(c1cc(-c2cccnc2)nc2ccc(Cl)cc12)N1CCN(S(=O)(=O)c2cccs2)CC1	-3.6%	-6%	0%	·
O=c1c2c3c(sc2n2cnnc2n1-c1ccccc1)N(Cc1ccccc1)CCC3	?	-27%	-1%	6
CCOc1ccc(NC(=O)CCC(=O)NNC(=O)Nc2ccc(Cl)cc2)cc1	5.7%	-22%	-6%	11
COc1cccc(NC(=S)N(CCCN2CCCC2)Cc2ccco2)c1	1.3%	-10%	-10%	-20
NCCNC[C@@H]1COC2(CCCCCCCCCCC2)O1	9.7%	15%	9%	-1
Cc1noc(C)c1CSc1nnc(-c2c[nH]c3ccccc23)n1-c1ccc(Cl)cc1	-0.4%	14%	-2%	-7
CCN(CC)CCCN=Cc1c(O)n(-c2cccc(C)c2)c(=O)c2ccccc12	?	-16%	4%	-7
COC(=O)c1ccccc1NC(=O)Cn1nc(C(F)(F)F)c2c1CCC2	3.7%	-4%	-7%	0
COc1ccc(OC)c2nc3c(cc12)CCC3	1.1%	1%	-1%	·
CCOc1ccc2nc(Cl)sc2c1	1.0%	25%	3%	-9
O=C(NC(=S)N1CCOCC1)c1cn(-c2ccccc2)nc1-c1ccccc1	1.8%	7%	·	·
CC(OC(=O)c1cc2sccc2n1C)C(=O)NCc1ccco1 (centres undefined)	-0.6%	5%	-6%	4
CNC(=O)c1ccc(-c2cc3onc(-c4ccccc4)c3c(=O)n2C)cc1	-4.8%	-5%	·	·
OC[C@H]1O[C@@H](n2cnc3c(Nc4ccccc4)ncnc32)[C@H](O)[C@@H]1O	4.0%	-1%	-99%	·

Carrying on.
SMILES	Rango-impB inh	Rango release inh	miR-21 FLuc	GLA inh pH 4.5
CN(C)Cc1c(C(=O)N/N=C/c2cccnc2)nnn1-c1nonc1N	12%	2%	3%	·
O=C(CCc1ccccc1)NNC(=O)COc1ccc([N+](=O)[O-])cc1	-2.0%	-3%	-1%	·
NS(=O)(=O)c1cccc(NC(=O)COC(=O)c2ccc(S(=O)(=O)N3CCOCC3)cc2)c1	?	6%	·	·
O=C(c1cccc(S(=O)(=O)N2CCOCC2)c1)N1CCN(Cc2ccc3c(c2)OCO3)CC1	-3.1%	-9%	-1%	-2
N#CCn1cnc2sc(-c3ccccc3)cc2c1=O	?	-7%	-38%	-2
Cc1oc2cc3oc(=O)c(CCC(=O)NCCN4CCOCC4)c(C)c3cc2c1C	0.4%	1%	-31%	·
Nc1nc(SCC(=O)NCc2ccccc2Cl)[nH]c(=O)c1NC(=O)c1ccccc1F	3.0%	-11%	0%	-6
O=C(C1CCCCC1)N1CC(=O)N2CCc3ccccc3C2C1 (centres undefined)	·	·	-19%	3&-2
CCc1nc(Nc2ccc3c(c2)OCO3)c2oc3ccccc3c2n1	?	-14%	9%	5
CN(CC(=O)NCc1ccc2c(c1)OCO2)S(=O)(=O)c1ccc(F)cc1	?	-6%	-4%	·
CCS(=O)(=O)c1nc(S(=O)(=O)c2ccc(C)cc2)c(N2CCC3(CC2)OCCO3)s1	-3.8%	-4%	2%	·
O=C(NCC1CC1)C1(C(F)(F)F)C/C(=C\Cc2ccccc2)CCCO1 (centres undefined)	-1.2%	52%	·	·
CCOc1ccccc1NC1=C(Cl)C(=O)N(Cc2ccccc2)C1=O	-5.1%	1%	-4%	-6
COc1cc(/C=C/C(=O)OCC(=O)c2ccc(OC(F)F)cc2)ccc1O	-3.6%	-9%	·	·
COc1ccccc1C(=O)NCCC(=O)NCCC12CC3CC(CC(C3)C1)C2	0.1%	6%	3%	·
COC(=O)C1CCCCN1C(=O)c1cccc(OC2CCN(C(=O)C3CC3)CC2)c1 (centres undefined)	-3.0%	8%	0%	·
Cc1ccc(S(=O)(=O)NC(=O)Nc2nccs2)cc1	-1.9%	-7%	2%	5
CCOC(=O)C1=C(C)Nc2nc(C)nn2C1c1ccc(C)cc1 (centres undefined)	6.8%	-7%	-3%	-5
